High-throughput results deposited in PubChem BioAssay by several laboratories.
ALR inh: human ALR oxidase inhibition via reduced H2O2 | 290,000 tested, 3.8% active | inhibition, % (test concentration not listed) | AID 485317 | purified ALR, DTT oxidation, H2O2 HRP-luminol luminescence | P55789;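 active = mean and each replicate at 75% or more; inconclusive = only one of the two met; inactive = neither met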;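 also: stock transfer was 7.5 nL into about 7.5 µL; 0% = neutral wells and 100% = wells with inactivated enzyme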
RanGTP-Impb inh: disruptors of Ran-importin-beta complex formation – biochemical, FRET, CFP-Ran, YFP-importin-beta, homogeneous, primary screen | cell-free CFP-Ran/YFP-importin-beta FRET ratio | inhibition, % (test concentration not listed) | 300,000 tested, 1.1% active | AID 2216;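 active = most replicates above 15%; inconclusive = exactly half above 15%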;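 also: 0% = DMSO wells and 100% = Ran loaded with GDP instead of GTP; wells of about 40 µL received 100 nL stock; the first replicate is given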
Calb FLC: affects C. albicans growth with fluconazole. C. albicans CaCi-2 (fluconazole-resistant clinical isolate) + fluconazole, Alamar Blue growth, 48 h. 300,000 tested, 0.57% active. growth inhibition, % (concentration not given with the values);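 active = most replicates above 75%; inconclusive = exactly half above 75%; inactive = most below 75%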;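 also: all wells also contain fluconazole at 8 µg/ml as a sub-toxic cotreatment; 0% = median of DMSO wells and 100% = median of geldanamycin control wells; wells of about 8 µL received 7.5 nL stock; the first replicate is given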
B2AR ag: activates human beta-2 adrenergic receptor causing internalization; response, % (test concentration not listed); P07550; Am2.2-beta2AR cells, FAP receptor internalization, flow cytometry; reference of the scale not given here; 340,000 tested, 0.43% active;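 active = response above a set limit, near 3 SD of response in nonfluorescent compounds, cut at about 42% in these data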;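 also: stock transfer was 100 nL into about 11 µL; a reference agonist was the positive control; negative values mostly stem from fluorescent compounds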
Target sequence (P07550 whole entry, looked up): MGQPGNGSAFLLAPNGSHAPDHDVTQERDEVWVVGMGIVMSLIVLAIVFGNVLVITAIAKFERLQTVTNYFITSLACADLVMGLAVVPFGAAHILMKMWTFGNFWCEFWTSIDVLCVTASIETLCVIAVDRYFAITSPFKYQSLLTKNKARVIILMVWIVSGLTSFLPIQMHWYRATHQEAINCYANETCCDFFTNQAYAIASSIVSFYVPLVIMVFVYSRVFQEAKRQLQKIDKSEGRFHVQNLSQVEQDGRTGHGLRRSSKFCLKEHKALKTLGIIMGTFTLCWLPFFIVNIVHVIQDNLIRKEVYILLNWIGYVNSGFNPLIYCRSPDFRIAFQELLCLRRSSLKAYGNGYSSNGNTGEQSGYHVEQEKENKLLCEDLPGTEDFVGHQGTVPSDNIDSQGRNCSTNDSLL
Vif TR-FRET: HIV-1 Vif–A3G interaction blockers – biochemical, TR-FRET, GST-Vif 1-94, biotin-A3G peptide, dose response retest, primary screen (AID 1117319). TR-FRET GST-Vif / biotin-A3G peptide binding; higher % means a stronger effect; test concentration not given here; strong numbers were not always called active. 260,000 tested, 0.57% active. one-dose inhibition, %; IC50 in µM for titrated hits;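 active = above the screen mean plus three standard deviations and confirmed in dose response; inconclusive = results disagree or hit not tested in dose response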;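 also: Vif residues 1-94 fused to GST binding biotinylated APOBEC3G peptide 110-148; 0% = full assay without inhibitor and 100% = GST in place of GST-Vif; retest series ran down from 100 µM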
LANA-H2A inh: blocks KSHV LANA binding to histone H2A/H2B; AID 2629; Q9QR71; cell-free LANA-H2A/H2B peptide, fluorescence polarization; inhibition, % (test concentration not listed); 320,000 tested, 0.6% active; in the data active = inhibition mostly above about 10%, no sharp cut-off; inactive = mostly below about 6.7%;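 also: stock transfer was 7.5 nL into about 10 µL; 0% = median of vehicle wells and 100% = median of positive control wells; one replicate is shown; the record names a cut of 25% in any replicate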
HNF4A DNA FP: change in binding of human HNF4 alpha to DNA. AID 1224865. P41235. HNF4a-FITC DNA binding, fluorescence polarization, 1 h. 360,000 tested, 0.3% active. activity change, % at 10 µM; in the data active = activity change above about 30%, passing the limit was not always enough;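 also: controls were the assay level and a saturating level of protein; the project sought stronger binding though the title names inhibitors; some compounds called inactive have numbers as strong as hits; positive values seem to mean higher polarization but the record does not say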
Target sequence (P41235 whole entry, looked up): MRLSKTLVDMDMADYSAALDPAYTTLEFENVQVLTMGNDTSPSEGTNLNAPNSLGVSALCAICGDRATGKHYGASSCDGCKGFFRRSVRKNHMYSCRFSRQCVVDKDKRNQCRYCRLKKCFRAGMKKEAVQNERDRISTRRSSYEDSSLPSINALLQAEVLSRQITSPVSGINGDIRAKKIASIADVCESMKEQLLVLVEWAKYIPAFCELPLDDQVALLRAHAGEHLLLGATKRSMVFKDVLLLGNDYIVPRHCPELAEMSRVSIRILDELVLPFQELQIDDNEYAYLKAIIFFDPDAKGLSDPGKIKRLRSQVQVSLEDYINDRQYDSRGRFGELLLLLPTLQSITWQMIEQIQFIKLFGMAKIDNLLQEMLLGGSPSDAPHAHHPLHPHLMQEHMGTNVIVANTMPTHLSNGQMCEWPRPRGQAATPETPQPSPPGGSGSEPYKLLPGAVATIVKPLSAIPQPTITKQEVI
The depositor's hits bear a star; ? = inconclusive; . = not tested or not shown.

Compound	ALR inh	RanGTP-Impb inh	Calb FLC	B2AR ag	Vif TR-FRET	LANA-H2A inh	HNF4A DNA FP
Cc1ccc(S(=O)(=O)N2CCC(C(=O)NCCCN3CCCC3=O)CC2)cc1	-6.2	.	.	-1.9	3.3%	-1.8	-4.3
COCCN(Cc1cc2cc(C)ccc2nc1Cl)C(=O)Nc1ccccc1OC	3.4	4.1	-4.7	-7.3	.	-2.4	-5.0
Cc1nn(-c2ccccc2)c(C)c1/C=C1\C(=O)N(C)C(=S)N1C	-10.6	0.8	12.0	-6.6	0.6%	1.4	-1.5
CCN1CC(CNCc2cn(-c3ccc(OC)cc3)nc2-c2ccccc2Cl)CC1=O (centres undefined)	-18.6	1.8	1.8	-4.7	12.1%	0.3	-1.6
C=CCNC(=O)C(=O)NCC1CCCN1CC (centres undefined)	4.7	3.8	3.2	-8.5	.	0.9	0.9
N/C(=N\OC(=O)Cc1cccs1)c1ccc(Cl)cc1	-11.4	1.0	-14.1	0.8	-6.6%	0.6	7.6
N#Cc1c(-c2ccccc2)c(-c2ccccc2)nn(CC(=O)NNC(=O)Nc2ccccc2)c1=O	4.4	3.5	16.1	-1.4	-0.1%	-3.7	2.1
CC1CCCCC1NC(=O)CCNC(=O)N1CC(=O)Nc2ccccc21 (centres undefined)	-7.2	-0.3	-1.4	-6.5	-5.1%	0.9	-2.0
Cc1cc(NCCCn2ccnc2)n2ncc(-c3ccccc3)c2n1	.	.	.	-5.6	5.0%	5.0	-3.4
Cc1ccc(CN(Cc2ccccn2)C(=O)Nc2c(F)cccc2F)cc1	-5.4	-0.6	8.7	1.7	-1.2%	-1.9	2.4
CC(C)Oc1ccc(S(=O)(=O)N2CCOCC2)cc1NC(=O)C1CCCCC1	.	.	.	-0.7	.	-25.7	-2.1
Cc1noc(C)c1NC(=O)Nc1cccc2c1O[C@@H](CN(C)C(=O)Nc1ccc3c(c1)OCO3)[C@@H](C)CN([C@H](C)CO)C2=O	-5.8	.	.	3.5	.	4.1	2.3
CN(C)CCCNC(=O)CC1C[C@H](C(=O)N2CCOCC2)[C@@]2(CCC3CCCC3)c3[nH]c4ccccc4c3CCN2C1=O (some centres undefined)	.	.	.	6.3	-4.0%	-4.5	0.8
CC1(C)Cc2c(C#N)c(NCCN3CCOCC3)nc(-c3ccccc3)c2CO1	.	-1.1	1.9	-1.5	-11.7%	1.3	2.9
CC1CCCC(NC(=O)COC(=O)c2ccc(Br)o2)C1C (centres undefined)	-8.3	.	.	1.3	.	-3.2	0.3
CNC(=O)c1ccc(Oc2ccc(C(=O)NC)cc2)cc1	36.1	-0.5	-9.8	1.1	-4.3%	0.1	3.7
O=C(Nc1nnc(COc2ccccc2)s1)Nc1ccccc1F	-1.6	-1.8	1.8	-5.9	28.6%	3.4	1.2
CCOC(=O)CCCNC(=O)CSc1nnc(-c2ccccc2)c(-c2ccccc2)n1	0.4	3.2	8.2	-5.0	1.5%	-4.2	0.2
CCn1c(C)nc2cc(S(=O)(=O)C(F)(F)C(F)C(F)(F)F)ccc21 (centres undefined)	0.4	-4.0	0.8	-5.0	-3.7%	0.0	1.6
CN(C)C(=O)c1ccc(NC(=O)c2cccc(S(=O)(=O)N3CCCc4ccccc43)c2)cc1	98.4*	0.5	-2.8	6.6	-1.1%	-2.7	-0.6
CS(=O)(=O)c1ccc(C(=O)OCc2nnc(-c3ccccc3)o2)cc1[N+](=O)[O-]	.	3.4	-15.5	85.4*	.	.	3.1
COc1ccc2[nH]c3c(c2c1)CCN1C(=O)C(CC(=O)NCCC2=CCCCC2)C[C@H](C(=O)N2CCOCC2)[C@@]31CCC1CCCC1 (some centres undefined)	.	.	.	11.4	3.5%	.	-4.7
Cc1ccc(NC(=O)CN2C(=O)C(C)Oc3ccccc32)nc1 (centres undefined)	-8.3	-0.4	26.9	0.4	2.6%	4.3	-0.4
Cc1c(NC(=O)CN2CCN(c3cccc(Cl)c3)CC2)c(=O)n(-c2ccccc2)n1C	11.2	4.6	42.5	-4.3	-7.6%	-0.7	0.5
S=c1[nH]nc(-c2ccco2)n1/N=C/c1ccccc1	94.9*	-1.8	4.9	5.6	3.4%	-8.4	5.8
COc1ccc(NC(=O)CN(C)C(=O)c2ccc(NS(=O)(=O)c3ccc(F)cc3)cc2)cc1	6.8	-1.1	-5.3	-2.8	1.5%	-1.5	-2.8
COc1cccc(NC(=O)CCCOc2cc(=O)n(C)c3ccccc23)c1	-9.3	-1.4	1.3	0.2	4.4%	-0.4	-1.7
Cc1cccc(CCNC(=O)c2cc(S(=O)(=O)N3CCCCC3)c[nH]2)c1	-3.2	4.6	-6.9	-6.6	.	-1.0	-3.4
Cc1ccc(NC(=O)CC2CCCC2)c(Br)c1	.	-0.2	3.8	8.7	.	5.6	-2.5
Cc1cc(C)cc(N2C(=O)C3CC=CCC3C2=O)c1 (centres undefined)	-3.8	-1.3	-6.7	6.8	5.0%	5.3	-1.4

Profiles from above.
Record of Cc1ccc(NC(=O)CC2CCCC2)c(Br)c1 → ALR inh: .; RanGTP-Impb inh: -0.2; Calb FLC: 3.8; B2AR ag: 8.7; Vif TR-FRET: .; LANA-H2A inh: 5.6; HNF4A DNA FP: -2.5
Record of Cc1cccc(CCNC(=O)c2cc(S(=O)(=O)N3CCCCC3)c[nH]2)c1 → ALR inh: -3.2; RanGTP-Impb inh: 4.6; Calb FLC: -6.9; B2AR ag: -6.6; Vif TR-FRET: .; LANA-H2A inh: -1.0; HNF4A DNA FP: -3.4

Further structures
Compound	ALR inh	RanGTP-Impb inh	Calb FLC	B2AR ag	Vif TR-FRET	LANA-H2A inh	HNF4A DNA FP
C[C@@H](C(=O)Nc1cc(C(F)(F)F)ccc1N1CCOCC1)N1C(=O)C2CC=CCC2C1=O (some centres undefined)	.	.	.	-5.9	-5.5%	.	1.4
Nc1cc(=O)[nH]c(SCc2ccc(Cl)cc2Cl)n1	-3.5	2.8	-1.4	-5.2	-1.0%	0.3	-1.3
COc1ccccc1N(CC(=O)NCC1CCCO1)C(=O)CCC(=O)Nc1cc(C)on1 (centres undefined)	-1.6	-2.9	22.0	3.7	.	2.3	-2.0
CCOC(=O)C1=C(c2ccccc2)NC(=O)NC1c1ccc(OC)cc1OC (centres undefined)	-16.3	3.6	-0.5	0.7	.	4.5	-1.8
CCOC(=O)C1CC(c2ccccc2)=NNC1=O (centres undefined)	62.4	-1.2	16.1	1.8	12.2%	-0.3	-2.0
COc1cc(CNCCSc2nnnn2C)cc(Br)c1OCc1ccccc1F	-27.8	1.4	6.0	-4.6	8.7%	-6.0	-2.8
CCCN(CCC)c1ccc(C(O)c2nnc(-c3ccccc3)o2)cc1 (centres undefined)	70.3	-13.9	-7.0	8.8	3.8%	3.0	0.6
Cc1ccc(NC(=O)Cn2ccsc2=N)c([N+](=O)[O-])c1	5.0	5.8	6.3	-7.3	8.4%	-1.7	3.1
COC(=O)/C=C1\C(=O)N(c2nc3ccc(OC)cc3s2)C(=S)N1c1ccc(F)cc1	-3.9	?	-23.0	.	27.7%	-1.4	.
COc1cc(/C=C2\SC(=O)N(CC(=O)Nc3ccc(C)cc3)C2=O)cc(Cl)c1OCC(=O)O	6.1	0.3	-1.1	-0.6	.	2.5	-3.9
CCCCNC(=O)c1onc(CSc2ccc(F)cc2)c1C(=O)O	10.5	-1.7	3.2	6.8	3.7%	-5.2	-0.3
O=C(NNC(=O)c1ccccc1C(=O)O)c1ccc(O)cc1	29.3	-3.6	3.2	-0.5	.	-8.1	-6.9
O=C(CN1C(=O)c2ccccc2C1=O)Nc1ccccc1	1.0	-1.9	-3.3	-5.0	4.3%	0.9	0.8
CCOC(=O)N1CCN(c2cc3nccnc3cc2F)CC1	-10.0	2.8	-3.3	-2.5	-7.5%	3.5	-1.4
O=C(Cn1cc(C(F)(F)F)cc(Cl)c1=O)NCc1ccc(F)cc1	1.2	-1.4	-0.1	-5.4	.	2.0	-0.2

Of the compounds above, these contain a nitro group on carbon:
Compound	ALR inh	RanGTP-Impb inh	Calb FLC	B2AR ag	Vif TR-FRET	LANA-H2A inh	HNF4A DNA FP
CS(=O)(=O)c1ccc(C(=O)OCc2nnc(-c3ccccc3)o2)cc1[N+](=O)[O-]	.	3.4	-15.5	85.4*	.	.	3.1
Cc1ccc(NC(=O)Cn2ccsc2=N)c([N+](=O)[O-])c1	5.0	5.8	6.3	-7.3	8.4%	-1.7	3.1

More compounds.
Compound	ALR inh	RanGTP-Impb inh	Calb FLC	B2AR ag	Vif TR-FRET	LANA-H2A inh	HNF4A DNA FP
Cc1ccc(S(=O)(=O)N2CCOC2CNC(=O)C(=O)NCc2ccc(Cl)cc2)cc1 (centres undefined)	-4.3	-1.0	0.1	-8.8	-0.5%	-9.5	0.6
Oc1ccc(C=Nc2ccc3ncccc3c2)c(O)c1	4.3	-0.5	2.1	.	?	-8.3	.
Cc1c(C(=O)N2CCCC2)sc(NC(=O)c2ccco2)c1C#N	31.5	0.9	-1.4	1.4	.	2.1	-0.4
O=C(CCN1CCOCC1)Nc1ccc(Cl)cc1	.	?	0.2	-0.1	.	-0.5	0.3
Cc1cc(C)c(NC(=O)CN2CCN(C)CC2)c(C)c1	.	3.4	1.1	5.1	2.6%	3.2	-2.4
O=C(c1cc(COc2ccc3c(c2)CCCC3)on1)N1CCCC1	18.2	1.8	-10.8	-8.2	?	-4.7	-0.7
CN(C)/C=N/c1nc2ncc(-c3ccc(Cl)cc3)c(/N=C/N(C)C)n2n1	-3.7	3.0	17.4	-6.6	0.4%	3.6	2.8
C/C(=N\NC(=O)c1ccc(CSc2nncn2C)cc1)c1ccc(C#N)cc1	-3.5	8.2	2.6	5.2	19.1%	-0.6	-2.2
CC(Sc1ccc(S(=O)(=O)N2CCCCCC2)cn1)C(N)=O (centres undefined)	.	.	.	3.9	-1.6%	.	-0.9
CC(C)n1cc(C(=O)N2CCCC(N3CCN(c4cccc(Cl)c4)CC3)C2)cn1 (centres undefined)	89.2*	0.7	-25.4	0.3	-0.6%	10.3	-1.3
C/C(=N\NC(=O)c1cccc(S(=O)(=O)N2CCOCC2)c1)c1cc2ccccc2o1	-3.3	3.7	0.8	-0.3	28.5%	3.7	0.5
O=C1C2ON(c3ccc(Cl)cc3)C(c3ccco3)C2C(=O)N1c1ccccc1 (centres undefined)	6.9	-2.8	0.7	5.7	3.2%	4.2	-2.0
CCC(C)NC(=O)CNC(=S)N(Cc1ccc(F)cc1)C1CCCCC1 (centres undefined)	.	-2.9	-12.2	1.6	6.4%	-2.2	-0.5
CC(C)(C)c1ccc(OCC(O)CN2CCN(c3ccccn3)CC2)cc1 (centres undefined)	4.3	1.0	3.9	4.8	.	-0.9	3.6
CCCN1C2CCCC1CC(NC(=S)NCCCOCC)C2 (centres undefined)	-34.0	6.3	-6.4	5.6	-8.3%	9.0	-2.3
CC(=O)N1c2ccc(S(=O)(=O)N(C)CC(=O)N(C)Cc3ccccc3)cc2CC1C (centres undefined)	-5.7	-0.3	18.1	-0.5	-2.3%	5.0	1.0
NC(=O)CC12CC3CC(C1)CC(CC(N)=O)(C3)C2	-23.2	-3.2	87.5*	-3.9	12.9%	5.1	0.8

This is a random part of the collection; 6.3% or so of the library scored in one or more.
